# 2A StopGo: lowers the luciferase signal of an FMDV 2A StopGo reporter | actives 1.2% (n = 410,000) | Potency, µM (doses to about 57.9 µM), for the others: top-dose signal change, negative = less light | AID 1159524 | human cells with a luciferase reporter of 2A StopGo recoding; control for the full effect not named in the record; active = well fitted falling curve with a large enough effect; inconclusive = small, poorly fitted or top-dose-only effect; inactive = no such curve, though single readings can be large or run the other way; tested in HEK293T cells; also: % is scaled to controls: 0 for no effect and ±100 for the full control effect; nearly all actives have a fitted effect of over 45% in size; luciferase light after 4 h
# RE007 growth inh: less growth of the S. pombe RE007 Vpr strain. S. pombe RE007 Vpr strain, BacTiter-Glo ATP luminescence, 24 h; control for the full effect not named in the record. actives 0.21% (n = 360,000). Potency, µM (titrated, usually from 92.2 µM), without a hit: at the highest dose activity change, negative = less growth; active = well fitted falling curve with a large enough effect; inconclusive = small, poorly fitted or top-dose-only effect; inactive = no such curve, though single readings can be large or run the other way;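 also: % is scaled to controls: 0 for no effect and ±100 for the full control effect; nearly all actives have a fitted effect of over 50% in size; the assay follows cell death caused by Vpr and the record does not say whether a fall means rescue or toxicity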
#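 Fission yeast RE007 carrying one integrated HIV-1 vpr copy, seeded at OD 0.01 in PMG+AL medium with 23 nL pinned compound. Grown 24 h at 30 degrees; viability read by BacTiter-Glo luminescence after 5 min.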
# SARS PLP yeast: inhibitors of SARS-CoV papain-like protease in yeast; S. cerevisiae expressing SARS-CoV PLpro, growth rescue; control for the full effect not named in the record; Potency, µM (highest dose often 32.9 µM), inactives show top-dose activity, positive = growth rescue; actives 0.19% (n = 330,000); active means well fitted rising curve with a large enough effect; inconclusive means small, poorly fitted or top-dose-only effect; inactive means no such curve, though single readings can be large or run the other way; also: 0% is about no effect; nearly all actives have a fitted effect of over 55% in size; growth read by luminescence after 48 h
# The depositor's hits bear a star; ? = inconclusive; [ ] = another dose, or the depositor's remark. Potency is read from the fitted curve at half-maximal effect.
# Start of the listing, in advance (14 entries):
SMILES,2A StopGo,RE007 growth inh,SARS PLP yeast
COc1ccccc1C(=O)NS(=O)(=O)c1ccc(C)cc1,-5%,-16%,-1%
Cc1ccc(CN2CC(=O)N3[C@H]4c5ccccc5OC[C@@H]4[C@H](c4ccccc4)[C@]3(C)C2=O)cc1,?,7%,-2%
COc1ccc(NC(=O)c2cc(-c3ccco3)nc3ccccc23)cn1,-16%,7%,2%
CCOc1ccccc1NC(=O)C1CCCN1S(=O)(=O)c1ccccc1C(F)(F)F (stereo not drawn),-11%,-7%,0%[6.58 µM]
O=C(COC(=O)CNC(=O)c1ccc(Cl)c([N+](=O)[O-])c1)NNC(=O)c1ccccc1F,-2%,-2%,-3%
Cc1ccc(S(=O)(=O)N(C)C)cc1NC(=O)C(C)OC(=O)C1CCC1 (stereo not drawn),-8%,-17%,1%
CCN(C(=O)CSc1cccc[n+]1[O-])C1CCCCC1,-12%,8%,-3%
CCSc1nc(-c2ccccc2)cc(=O)[nH]1,-10%,10%,-6%
CCOC(=O)[C@H]1[C@H]2COc3ccc(C)cc3[C@@H]2N2C(=O)c3cc(OC)c(OC)cc3NC(=O)[C@@]12C,-12%,4%,-3%
COc1ccc(CCC2(C)NC(=O)N(C(C)C(=O)Nc3ccccc3F)C2=O)cc1 (stereo not drawn),9%,0%,2%
Cc1cccc(N(Cc2ccccc2)C(=O)CN2C(=O)NC3(CCCCC3C)C2=O)c1 (stereo not drawn),4%,1%,1%
CC1=NOC(=O)/C1=C/c1ccc2c(c1)OCO2,3%,2%,-1%
Cc1ccc(CNC(=O)c2ccc(N3CCC4(CC3)CC(c3cccc(Br)c3)=NO4)c(N)c2)cc1,-24%,-2%,-6%
COc1ccc(S(=O)(=O)N2CCN(CC(=O)NCC3(N4CCOCC4)CCCCC3)CC2)cc1,-17%,4%,1%

# The listing, previewed entries included:
SMILES,2A StopGo,RE007 growth inh,SARS PLP yeast
COc1ccccc1C(=O)NS(=O)(=O)c1ccc(C)cc1,-5%,-16%,-1%
Cc1ccc(CN2CC(=O)N3[C@H]4c5ccccc5OC[C@@H]4[C@H](c4ccccc4)[C@]3(C)C2=O)cc1,?,7%,-2%
COc1ccc(NC(=O)c2cc(-c3ccco3)nc3ccccc23)cn1,-16%,7%,2%
CCOc1ccccc1NC(=O)C1CCCN1S(=O)(=O)c1ccccc1C(F)(F)F (stereo not drawn),-11%,-7%,0%[6.58 µM]
O=C(COC(=O)CNC(=O)c1ccc(Cl)c([N+](=O)[O-])c1)NNC(=O)c1ccccc1F,-2%,-2%,-3%
Cc1ccc(S(=O)(=O)N(C)C)cc1NC(=O)C(C)OC(=O)C1CCC1 (stereo not drawn),-8%,-17%,1%
CCN(C(=O)CSc1cccc[n+]1[O-])C1CCCCC1,-12%,8%,-3%
CCSc1nc(-c2ccccc2)cc(=O)[nH]1,-10%,10%,-6%
CCOC(=O)[C@H]1[C@H]2COc3ccc(C)cc3[C@@H]2N2C(=O)c3cc(OC)c(OC)cc3NC(=O)[C@@]12C,-12%,4%,-3%
COc1ccc(CCC2(C)NC(=O)N(C(C)C(=O)Nc3ccccc3F)C2=O)cc1 (stereo not drawn),9%,0%,2%
Cc1cccc(N(Cc2ccccc2)C(=O)CN2C(=O)NC3(CCCCC3C)C2=O)c1 (stereo not drawn),4%,1%,1%
CC1=NOC(=O)/C1=C/c1ccc2c(c1)OCO2,3%,2%,-1%
Cc1ccc(CNC(=O)c2ccc(N3CCC4(CC3)CC(c3cccc(Br)c3)=NO4)c(N)c2)cc1,-24%,-2%,-6%
COc1ccc(S(=O)(=O)N2CCN(CC(=O)NCC3(N4CCOCC4)CCCCC3)CC2)cc1,-17%,4%,1%
Cc1ccc(C(=O)OCC(=O)Nc2cccc(S(=O)(=O)N3CCOCC3)c2)o1,5%,1%,-1%
O=C(Cc1c(F)cccc1Cl)NNC(=O)c1ccc(Br)s1,65%[activator],-16%,3%
CC1CCCCC12NC(=O)N(CC(=O)N1CCN(S(=O)(=O)Cc3ccccc3)CC1)C2=O (stereo not drawn),-6%,-3%,5%
COc1cccc(C(=O)N[C@@H](CCSC)c2nc3ccccc3[nH]2)c1,-6%,1%,0%
Cc1ccsc1/C=N/NC(=O)C(N)=O,39%[activator],17%,-1%
CCN(CC(=O)Nc1ccc(NC(C)=O)cc1)C(=O)c1ccc(N2CCC(C)CC2)c([N+](=O)[O-])c1,1%,-4%,-2%
CCC(C)(O)C(=O)N[C@H]1CCCN1C(=O)/C=C/c1ccccc1 (stereo partly drawn),-16%,-14%,6%
COc1ccc(-c2cccc3c2NC(=O)C3=O)cc1OC,22%,2%,9%
N#Cc1ccc(N[C@@H]2CCN3C(=O)c4ccccc4[C@@H]3C[C@H]2O)cc1,-19%,6%,4%
COc1ccc(NC(=O)Nc2cccc3c2O[C@H](CN(C)S(=O)(=O)c2cccs2)[C@@H](C)CN([C@H](C)CO)C3=O)cc1,52%[activator],-10%,-4%
Cc1cccc(NC(=O)C2CC(=O)N(c3ccc4c(c3)OCCO4)C2)n1 (stereo not drawn),5%,-21%,-4%
Cc1cn([C@H](C(=O)NCCCCCCCCCCC(=O)N2CCN(C(=O)OC(C)(C)C)CC2)[C@@H](C)O)nn1,?,-5%,2%
CC(=O)Nc1ccc(SCCN2CC[C@@H](C(C)(C)C)CCC2=O)cc1,19%,-1%,-2%
COc1ccc(CCNC(=O)COc2ccc3c(c2)OCO3)cc1,-19%,?,-4%
CCCCN(Cc1nc2ccccc2c(=O)[nH]1)C(=O)COc1ccc(F)cc1Cl,-25%,4%,0%
COC(=O)[C@@]12CCCN1[C@H](c1ccc(-c3ccc4c(c3)OCO4)c(OC)c1)[C@H]1C(=O)N(C)C(=O)[C@H]12,-16%,-12%,-3%
COc1ccccc1NC(=O)NCCN1CCN(C(=O)Nc2ccccc2OC)CC1,6%,9%,1%
COc1ccc(N2CCN(C(=O)c3cc4c(s3)CCCCC4)CC2)cc1,-3%,-4%,-1%
O=C1CN(C(=O)COC(=O)CCS(=O)(=O)c2ccccc2Cl)c2ccccc2N1,0%,-21%,1%
O=c1[nH][nH]c(-c2ccccc2)c1C=Nc1ccc(C(F)(F)F)cc1,-8%,-12%,-3%
COc1ccc(O)c(C(=O)c2cnn(S(=O)(=O)c3ccc(C)cc3)c2)c1,9%,-11%,-1%
COc1cc2c(cc1OC)[C@@H](NC(=O)COc1ccccc1)[C@H](OCc1ccccc1)C2,-16%,10%,?
COc1ccc(NS(=O)(=O)c2cc([N+](=O)[O-])ccc2NN=Cc2ccccc2OCC(=O)O)cc1,14%,5%,-3%
Cc1cc(C)cc(OCC(=O)Nc2ccc(-n3cnnn3)cc2)c1,2%,-2%,-4%
Cc1cc(NC(=O)CN(C)CC(=O)Nc2ccc(Cl)c(C(F)(F)F)c2)no1,?,11%,1%
Cc1ccccc1Nc1nc(N)nc(CSc2ccc(F)cc2)n1,34%[activator],5%,-7%
CC(C)(C)OC(=O)C[C@@H]1C/C=C\C[C@H](CC(=O)N[C@@H](CO)Cc2ccccc2)C(=O)N[C@H](C(C)(C)C)COC1=O,-16%,4%,-16%
CCOc1ccc(NC(=S)N(CCN2CCOCC2)Cc2ccc3c(c2)CCCN3CC)cc1,-2%,-5%,25%
Cc1ccc(C)c(SCC(=O)Nc2ccc(C)c(S(=O)(=O)N3CCOCC3)c2)c1,?,11%,-2%
COc1ccc(N2C(=NC(=O)c3ccc(Br)cc3)SC3CS(=O)(=O)CC32)cc1 (stereo not drawn),-12%,-4%,4%
Nc1ncnc2c1ncn2Cc1ccccc1,-16%,4%,-5%
O=C(NNC(=O)c1c(F)cccc1F)c1sccc1-n1cccc1,6%,5%,-2%
Cc1c(C(=O)O)sc2nc(SCC(=O)Nc3ccc(S(=O)(=O)NCCCC(=O)O)cc3)[nH]c(=O)c12,3%,-16%,1%
COc1ccc(C2/C=C\CN(C(=O)c3ccccc3)CC(=O)N2Cc2cccc(F)c2)cc1 (stereo not drawn),-1%,-13%,1%
COc1ccc(NC(=O)CSc2nnc(-c3ccc(F)cc3)o2)cn1,28%,4%,3%
CCCn1nc(C(=O)N2CCc3ccccc32)c2ccccc2c1=O,-26%,6%,5%
Cc1ccc(S(=O)(=O)c2cc(O)ccc2O)cc1C,81%[activator],-1%,3%
C[C@@]12C(=O)Nc3cc(Cl)ccc3C(=O)N1[C@H]1c3cc(Cl)ccc3OC[C@@H]1[C@@H]2c1ccccc1,?,-8%,-14%
O=C(NCC1CCCO1)c1ccc(Br)c(S(=O)(=O)N2CCOCC2)c1 (stereo not drawn),1%,28%,-5%
Cn1c(Cc2ccccc2)nnc1SCC(=O)NCCc1ccccc1,-2%,2%,-7%
COc1cccc(C2=CC(=O)C[C@H](c3ccc(F)cc3)C2)c1OC,0%,12%,11%
O=C(CNC(=O)c1ccco1)Nc1ccc(N2CCCCCC2)cc1,45%[activator],3%,1%
COc1ccc(NC(=O)CN(C)CC(=O)Nc2sc3c(c2C#N)CCC3)cc1,-21%,3%,-4%
CC(C)CC(C(=O)N1CCOCC1)N1Cc2ccccc2C1=O (stereo not drawn),-9%,11%,0%
O=C(COC(=O)c1ccc(O)cc1)Nc1cccc(S(=O)(=O)NC2=NCCC2)c1,-5%,-2%,-2%
Fc1cccc(F)c1/C=N/Nc1ccccn1,63%[activator],-17%,0%

# Remaining list, next part
SMILES,2A StopGo,RE007 growth inh,SARS PLP yeast
Nc1cc(S(=O)(=O)Nc2ccccc2Cl)ccc1N1CCOCC1,19%,23%,0%
CCC/C(=C1/c2ccccc2C(=O)N1c1ccccc1)c1ccc2c(c1)OCCO2,-23%,14%,1%
O=C1Nc2ccccc2N(O)N1c1cc(-c2ccc(Cl)cc2)[nH]n1,-7%,-11%,16%
COc1ccc([C@H]2CC(=O)C=C(c3ccc(F)cc3OCc3ccccc3)C2)cc1OC,?,-1%,-6%
CCOc1cc(N2CCOCC2)c(OCC)cc1NC(=O)CSc1nc(N)cc(=O)[nH]1,-17%,-10%,-4%
O=S(=O)(c1ccc(Br)s1)N1CCN(CCc2ccccc2)CC1,?,9%,-2%
Cc1ccc(NC(=O)Nc2ccccc2F)cc1S(=O)(=O)N1CCOCC1,-5%,-21%,1%
CN(Cc1ccccc1N1CCCC1)C(=O)c1cc2cc(Cl)ccc2o1,?,1%,-1%
COc1ccc(NC(=O)CNC(=O)C2CCCCC2)cc1OC,-15%,13%,-1%
O=C(CCCN=C1NS(=O)(=O)c2ccccc21)Nc1ccc(Cl)cc1,6%,15%,-8%
S=C(NC1CC1)SCc1ccco1,-24%,7%,0%
CCOC(=O)c1[nH]c(C)c(C(=O)OCC(=O)NCc2ccc(OC)cc2)c1C,-2%,-1%,-9%
CCOC(=O)C1CCN(C(=O)CCNS(=O)(=O)c2ccc(C)cc2)CC1,4%,-6%,2%
O=c1cc(-c2ccc(O)cc2)oc2c(-c3c(O)cc(O)c4c(=O)cc(-c5ccc(O)cc5)oc34)c(O)cc(O)c12,-18%,10%,6%
CC(C)(C)OC(=O)NCc1ccc(CNC(=O)c2ncn(Cc3ccccc3)c2C(=O)NCc2ccc(CNC(=O)OC(C)(C)C)cc2)cc1,-23%,5%,-4%
N#Cc1ccc(NC(=O)CSc2nc3[nH]c(=O)cc(O)c3s2)cc1,-12%,0%,2%
Cc1ccc(C2(c3ccccc3)NC(=O)N(CC(=O)N(C)C3CCS(=O)(=O)C3)C2=O)cc1C (stereo not drawn),-11%,5%,-17%
O=C(Nc1cc(C(F)(F)F)ccc1N1CCCC1)C1CCCO1 (stereo not drawn),-6%,2%,0%
O=S(=O)(N(Cc1ccccc1)[C@@H](CO)Cc1ccccc1)N(Cc1ccccc1)[C@@H](CO)Cc1ccccc1,-25%,8%,0%
CCN1C(=C(C#N)C#N)C=Cc2ccccc21,-16%,0%,0%
Cc1cc(C)cc(C(=O)OCC(=O)N2CCCCCC2)c1,13%,10%,1%
COc1ccccc1NC(=S)N1CCC(C(=O)c2ccc(F)cc2)CC1,22%,8%,2%
NC1(C#Cc2ccc3c(=O)c4ccccc4sc3c2)CCCCC1,-19%,-27%,4%
O=C(OCC(=O)N1CCCC1)c1c[nH]c2ccccc12,33%[activator],17%,-6%
Cc1nn(CC(=O)Nc2cc(S(=O)(=O)N3CCOCC3)ccc2Cl)c(C)c1[N+](=O)[O-],-15%,6%,-3%
Cc1ccc(S(=O)(=O)N2[C@@H](c3ccc(Br)cc3)C(C(=O)O)=CC[C@H]2c2ccc(C(C)C)cc2)cc1,-8%,11%,-14%
OC(COc1ccccc1)CN1CCN(CC(O)COc2ccccc2)CC1 (stereo not drawn),-9%,-10%,1%
CC(C)(C)OC(=O)N1CCC(Cc2cc(-c3cccnc3)no2)(C(=O)O)CC1,-11%,2%,-12%
COc1ccccc1NS(=O)(=O)c1cccc(C(=O)N2CCCC2)c1,18%,6%,2%
CC(C)N(CCCNC(=O)c1ccc(N2CCCC2=O)cc1)Cc1ccccc1,-3%,-10%,-7%

# The list is partial. The share of hits here may be higher or lower than overall.
